CHRM4 PAM: potentiates acetylcholine response at human M4 receptor | P08173 | CHO-K1 hM4/Gqi5, Fluo-8 calcium fluorescence, ACh EC20; 0% = ACh EC20, 100% = maximal ACh | activation, % at 3 µM | actives 0.4% (n = 360,000) | AID 624126;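 active = activation above its plate's cutoff, the mean activation of sample wells plus 3 SD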; also: some results filed as inactive read as strong as hits
M5 ag: CHRM5 agonism in calcium assay; CHO-K1 hM5 cells, Fluo-8 calcium fluorescence; 0% DMSO wells, 100% maximal acetylcholine response; activation, % at 3 µM; actives 0.19% (n = 360,000); AID 624037;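 active = activation above the run's mean over test compounds plus 3 SD, cut at about 23% in these data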;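 also: signal is peak over basal fluorescence ratio across the kinetic read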
M5 PAM: positive allosteric modulators of human muscarinic M5 receptor | P08912 | CHO-K1 hM5, Fluo-8 calcium, ACh EC20 PAM; 0% = ACh EC20, 100% = ACh EC100 | activation, % at 3 µM | actives 0.3% (n = 360,000) | AID 624038;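 active = activation above the run cutoff, the mean activation of all test compounds plus 3 SD, cut at about 18% in these data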
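Probe or stimulus: acetylcholine, EC20 level; Assay system: human M5 receptor in CHO-K1 cells; Schedule: compound preincubation 140 s before EC20 acetylcholine addition; Technique: intracellular calcium via Fluo-8 fluorescence; Dosing: single-point, 3 µM nominal; Read-out basis: percent activation from peak-over-basal fluorescence ratio, scaled EC20-to-EC100 acetylcholine; Repeats: one well per compound, no replicates.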
M4 antag: CHRM4 antagonism in calcium assay; CHO-hM4 cells, ACh EC80, Fluo-8 calcium fluorescence; inhibition, % at 3 µM; actives 0.73% (n = 360,000); AID 624125;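 active = inhibition above its plate's cutoff, the mean inhibition of sample wells plus 3 SD, cut at about 27% in these data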;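 also: 0% = acetylcholine EC80 with DMSO and 100% = DMSO without agonist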
CHRM5 antagonist: antagonists of human muscarinic M5 receptor (CHRM5); P08912; CHO-hM5 cells, Fluo-8 calcium fluorescence, ACh EC80; inhibition, % at 3 µM; actives 0.59% (n = 360,000); AID 624040;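 active = inhibition above a per-plate cutoff, the mean of that plate's test compounds plus 3 SD, cut at about 27% in these data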;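 also: 0% = acetylcholine EC80 with DMSO and 100% = DMSO without agonist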
The depositor's hits bear a star; & = joins results of further samples.

#1 CN1CC[C@]23c4c5ccc(O)c4OC2C(O)C=CC3[C@H]1C5 (some centres not stated)
#2 NCC(CC(=O)O)c1ccc(Cl)cc1 (configuration not stated)
#3 C=C1[C@H]2CC[C@H]3[C@]4(C)C[C@H](O[C@@H]5OC(CO)[C@@H](OSOOO)[C@H](OS(=O)(=O)O)[C@H]5OC(=O)CC(C)C)C[C@@H](C(=O)O)[C@H]4CC[C@]3(C2)[C@H]1O (some centres not stated)
#4 N[C@@H](Cc1ccc(N(CCCl)CCCl)cc1)C(=O)O
#5 O=C/C=C/c1ccccc1
#6 CN(C)[C@@H]1C(=O)C(C(N)=O)=C(O)[C@@]2(O)C(=O)C3=C(O)c4c(O)cccc4[C@@](C)(O)C3C[C@@H]12 (some centres not stated)
#7 COc1ccc(Cc2nccc3cc(OC)c(OC)cc23)cc1OC
#8 C[C@]12CCC(=O)C=C1CCC1C2CC[C@@]2(C)C1CC[C@@H]2O (some centres not stated)

| assay / entry | 1 | 2 | 3 | 4 | 5 | 6 | 7 | 8 |
| --- | --- | --- | --- | --- | --- | --- | --- | --- |
| CHRM5 antagonist | -9 | 0 | 14 | 0 | 6 | 6 | 7 | 9 |
| CHRM4 PAM | 10 | 12 | -5 | 4 | -2 | 1 | -3 | 0 |
| M4 antag | -20 | 7 | 0 | -10 | -1 | -5 | -5 | -7 |
| M5 PAM | 1 | 2 | 1 | 0 | -4 | -3 | -8 | 4 |
| M5 ag | 0 | -3 | 1 | -1 | 1 | 1 | 8 | 3 |

#9 CC(C)(C)NCC(O)c1cc(Cl)c(N)c(Cl)c1 (configuration not stated)
#10 CNC1(c2ccccc2Cl)CCCCC1=O (configuration not stated)
#11 [N-]=[N+]=CC(=O)OC[C@H](N)C(=O)O
#12 COc1cccc([C@@]2(O)CCCC[C@@H]2CN(C)C)c1
#13 COc1ccc2c(c1)C13CCCC[C@@H]1C(C2)N(C)CC3 (some centres not stated)
#14 CC(C)CC(N(C)C)C1(c2ccc(Cl)cc2)CCC1 (configuration not stated)
#15 C[C@]12CCC3C(CC[C@H]4CC(=O)CC[C@]34C)C1CCC2=O (some centres not stated)
#16 Oc1cccc2cccnc12

| assay / entry | 9 | 10 | 11 | 12 | 13 | 14 | 15 | 16 |
| --- | --- | --- | --- | --- | --- | --- | --- | --- |
| CHRM5 antagonist | -2 | 0 | -6 | 9 | -3 | -8&-4 | -1 | -1 |
| CHRM4 PAM | -1 | -3 | -2 | -3 | -3 | 4&0 | 2 | 1 |
| M4 antag | 9 | 2 | -15 | -2 | 0 | -8&0 | -15 | -3 |
| M5 PAM | -4 | -4 | 4 | -2 | 0 | 5&3 | 3 | 4 |
| M5 ag | 1 | 1 | 0 | -6 | -1 | -2&-3 | 0 | 5 |

#17 C#CCN(C)C(C)Cc1ccccc1 (configuration not stated)
#18 CN(C)C(=O)Oc1cc(OC(=O)N(C)C)cc(C(O)CNC(C)(C)C)c1 (configuration not stated)
#19 CCC1(c2ccccc2)C(=O)NC(=O)NC1=O
#20 C/C=C/c1ccc2c(c1)OCO2
#21 COc1ccc(CC2NCC(O)C2OC(C)=O)cc1 (configuration not stated)

| assay / entry | 17 | 18 | 19 | 20 | 21 |
| --- | --- | --- | --- | --- | --- |
| CHRM5 antagonist | -5 | 1&4 | 1 | -1 | -4 |
| CHRM4 PAM | -1 | -5&-4 | -1 | 10 | 3 |
| M4 antag | 0 | 4&3 | -6 | -8 | -3 |
| M5 PAM | 4 | 0&-3 | -4 | 4 | 4 |
| M5 ag | -1 | 0&0 | 2 | 2 | 0 |

Some of the compounds tested, so the mix of outcomes need not match the whole.
